Assay outcomes: PubChem, National Center for Advancing Translational Sciences (NCATS)
SARS PLpro yeast = blocks SARS-CoV papain-like protease in a yeast assay | S. cerevisiae expressing SARS-CoV PLpro, growth rescue; control for the full effect not named in the record | Potency, µM (titrated, usually from 32.9 µM), without a hit: at the top dose activity, positive = growth rescue | 0.19% of 330,000 active; active means well fitted rising curve with a large enough effect; inconclusive means small, poorly fitted or top-dose-only effect; inactive means no such curve, though single readings can be large or run the other way; further: 0% is about no effect; nearly all actives have a fitted effect of over 55% in size; growth read by luminescence after 48 h
Cruzain inh Det = blocks cruzain activity in presence of Triton detergent. P25779. purified cruzain, Z-FR-AMC fluorescence, 0.01% Triton. 0.43% of 200,000 active. AID 1478. Potency, µM, without a hit: max response, negative = inhibition, actives largely listed as inhibitors;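 further: plate controls were neutral wells for no effect and buffer without enzyme for full effect; nearly all actives have a fitted effect of over 40% in size; top concentration of the series not given in the record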
Target sequence (P25779 123-467 limits assumed): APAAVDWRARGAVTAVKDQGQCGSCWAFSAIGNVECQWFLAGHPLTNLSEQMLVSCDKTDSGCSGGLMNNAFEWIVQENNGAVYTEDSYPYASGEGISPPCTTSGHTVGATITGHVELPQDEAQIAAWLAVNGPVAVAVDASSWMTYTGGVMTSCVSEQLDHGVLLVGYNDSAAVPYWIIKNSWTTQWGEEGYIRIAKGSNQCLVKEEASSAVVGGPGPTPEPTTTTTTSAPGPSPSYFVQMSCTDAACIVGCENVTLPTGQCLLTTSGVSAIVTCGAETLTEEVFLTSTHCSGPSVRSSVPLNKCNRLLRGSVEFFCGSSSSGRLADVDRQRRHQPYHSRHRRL
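Detergent-containing run (0.01% Triton X-100) in acetate buffer pH 5.5 with 5 mM DTT: enzyme at 1.5 nM final, 15 min compound preincubation at room temperature, then 2 uM Z-FR-AMC substrate. Activity taken as 60 s fluorescence increase at 360/450 nm.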
Cruzain inh noDet = inhibitors of Trypanosoma cruzi cruzain without detergent | Potency, µM, for inactives: max response, negative = inhibition, most hits filed as inhibitors | 2.3% of 200,000 active | purified cruzain, Z-FR-AMC fluorescence, no detergent | AID 1476 | P25779;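 further: plate controls were enzyme without inhibitor for no effect and buffer without enzyme for full effect; nearly all actives have a fitted effect of over 40% in size; top concentration of the series not given in the record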
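Purified cruzain at 1.5 nM, pre-incubated 15 min with compound at room temperature in 100 mM sodium acetate pH 5.5, 5 mM DTT, 0.00005% Triton X-100. Reaction started with 2 uM Z-FR-AMC; AMC fluorescence increase over 60 s gives rate.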
LASV entry inh = inhibitors of Lassa virus binding or cell entry; AID 540256; 1.2% of 300,000 active; Lassa virus pseudotype entry inhibition, cell reporter; control for the full effect not named in the record; Potency, µM (series often up to 37.9 µM), for inactives: at the highest dose activity change, negative = inhibition, actives largely listed as inhibitors; active means well fitted inhibition curve with a large enough effect; inconclusive means small, poorly fitted or top-dose-only effect, or effect the other way; inactive means flat fitted curve, though single readings scatter; tested in HEK293 cells; further: on the % scale 0 is the no-effect control and ±100 the full control effect; nearly all actives have a fitted effect of over 50% in size; luciferase read-out
2A StopGo = FMDV 2A StopGo reporter, luciferase signal. human cells with a luciferase reporter of 2A StopGo recoding; control for the full effect not named in the record. Potency, µM (top dose mostly 57.9 µM), for inactives: at the highest dose signal change, negative = less light. 1.2% of 410,000 active; active = well fitted falling curve with a large enough effect; inconclusive = small, poorly fitted or top-dose-only effect; inactive = no such curve, though single readings can be large or run the other way; tested in HEK293T cells; further: on the % scale 0 is the no-effect control and ±100 the full control effect; nearly all actives have a fitted effect of over 45% in size; luciferase light after 4 h
NS1 inh = blocks influenza NS1 protein function; S. cerevisiae slowed by influenza A NS1, growth recovery by OD600; Potency, µM (top dose mostly 46.1 µM), inactives show at the highest dose activity, positive = more growth; 0.4% of 270,000 active; AID 2326; active means well fitted rising curve with a large enough effect; inconclusive means small, poorly fitted or top-dose-only effect; inactive means no such curve, though single readings can be large or run the other way; further: nearly all actives have a fitted effect of over 50% in size
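Read-out: OD600 growth recovery of NS1-expressing budding yeast. Cells grown overnight at 30C in -URA glucose medium, washed, resuspended and diluted 1:100 in 2% galactose assay medium, pH 6.0. Same strain lacking NS1 served as positive control.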
RE007 growth inh = less growth of the S. pombe RE007 Vpr strain | AID 651644 | 0.21% of 360,000 active | Potency, µM (series often up to 92.2 µM), for inactives: top-dose activity change, negative = less growth | S. pombe RE007 Vpr strain, BacTiter-Glo ATP luminescence, 24 h; control for the full effect not named in the record; active = well fitted falling curve with a large enough effect; inconclusive = small, poorly fitted or top-dose-only effect; inactive = no such curve, though single readings can be large or run the other way;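 further: on the % scale 0 is the no-effect control and ±100 the full control effect; nearly all actives have a fitted effect of over 50% in size; the assay follows cell death caused by Vpr and the record does not say whether a fall means rescue or toxicity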
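Fission yeast strain RE007, carrying one chromosomally integrated HIV-1 vpr copy, was seeded at OD 0.01 in PMG+AL medium with 23 nL pinned compound. After 24 h at 30 °C and 99% humidity, viability was read by BacTiter-Glo luminescence.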
MARV entry inh = Marburg virus entry inhibition | Potency, µM (highest dose often 37.8 µM), for inactives: at the top dose activity change, negative = inhibition, hits mostly inhibitors | 1.8% of 300,000 active | Marburg virus pseudotyped entry inhibition, cell reporter; control for the full effect not named in the record; about a third of the inactives were read at about 46 µM; active = well fitted inhibition curve with a large enough effect; inconclusive = small, poorly fitted or top-dose-only effect, or effect the other way; inactive = flat fitted curve, though single readings scatter; tested in HEK293 cells; about a fifth of its hits are not listed in these tables; further: on the % scale 0 is the no-effect control and ±100 the full control effect; luciferase read-out
The depositor's hits bear a star; ? = inconclusive; . = no result given; & = joins results of further samples; [ ] = another dose, or the depositor's remark. Unless noted, the call rests on the fitted dose curve; in most records, active means well fitted curve in the direction sought with a large enough effect; inconclusive means small, poorly fitted or top-dose-only effect, or another doubt; inactive means no such curve, though single readings can be large; an effect the other way counts as inactive or inconclusive. Potency means the concentration at half of the fitted maximal effect.

No.	SMILES	SARS PLpro yeast	Cruzain inh Det	Cruzain inh noDet	LASV entry inh
1	CCOC(=O)c1cccc(NC(=O)CS(=O)(=O)Cc2nc(-c3cccc(OC)c3)oc2C)c1	-5.8%	-4.4%	17.8%	-4.1%
2	CCOc1ccc(CC(=O)Nc2ccc(-c3ccc4nnc(C)n4n3)cc2)cc1	-5.6%	.	.	-16.2%[46.1 µM]
3	Cc1ccc2c(=O)cc(CSc3ccccc3)[nH]c2c1C	.	-1.3%	-10.2%	7.3%[46.1 µM]
4	COCCC(=O)N1CCC(Oc2ccc(C(=O)N3CCCC(CCCO)C3)cc2)CC1 (configuration not stated)	1.1%	.	.	-3.0%
5	CCCCOc1ccc(C(=O)NCC(=O)OCC(=O)c2c(N)n(C)c(=O)n(C)c2=O)cc1	0.0%	.	.	1.8%
6	Cc1nc(-c2ccc(S(=O)(=O)NCc3ccc(F)cc3)cc2)co1	.	-3.4%	-2.8%	-16.0%[46.1 µM]
7	COc1ccc(C(=O)C(/C=N/O)=N/Nc2ccc(F)cc2)cc1	1.1%	.	.	3.9%
8	O=C(CN1CCC(C(=O)c2cccc(Cl)c2)CC1)Nc1cccc(C(=O)O)c1	1.0%	.	.	1.4%
9	O=C(CSc1n[nH]c(=O)n1-c1cccnc1)N1CCOCC1	-0.3%	.	.	1.3%
10	COc1ccc(S(=O)(=O)N2CCOC2CNC(=O)C(=O)NCc2ccccc2OC)cc1 (configuration not stated)	5.0%	.	.	-0.6%
11	Cc1cccc(CN2CCN(Cc3cnn(-c4ccccc4F)c3)CC2CCO)n1 (configuration not stated)	0.4%	.	.	.
12	CN(Cc1cccc(F)c1)CC(O)COCc1ccccc1Cl (configuration not stated)	-2.8%	.	.	-5.4%[46.1 µM]
13	COc1cccc(NC(=O)N(CCCN2CCOCC2)C(C)c2cc3cccc(OC)c3o2)c1 (configuration not stated)	-1.4%	4.7%	-13.3%	?
14	CC1CCCCN1C(=O)CN1C(=O)c2ccccc2S1(=O)=O (configuration not stated)	1.3%	.	.	20.9%
15	Cc1ccc(NC(=O)c2sc3nc(-c4cccs4)ccc3c2N)cc1F	.	?	?	-6.0%[46.1 µM]

No.	2A StopGo	NS1 inh	RE007 growth inh	MARV entry inh
1	?	-39.4%	13.7%	24.6%&24.6%
2	-20.1%	.	0.5%	-15.5%[46.1 µM]
3	15.7%	.	.	.
4	-0.9%	1.1%	22.3%	-1.9%
5	-5.4%	.	-3.2%	?
6	28.8%	.	.	.
7	-8.1%	.	27.5%	-3.7%[46.1 µM]
8	10.8%	?	-21.1%	?
9	-13.5%	3.6%	1.6%	0.5%[46.1 µM]
10	-2.2%	5.0%	29.1%	?
11	0.2%	7.2%	3.0%	.
12	-9.3%	.	-10.0%	9.4%[46.1 µM]
13	-20.1%	-8.3%	14.5%	-14.2%&-14.2%
14	29.0%	.	-9.0%	2.9%
15	17.1%	.	.	8.0%[46.1 µM]

Another view of part of the listing above.
| entry | SMILES | SARS PLpro yeast | Cruzain inh Det | Cruzain inh noDet | LASV entry inh | 2A StopGo | NS1 inh | RE007 growth inh | MARV entry inh |
| --- | --- | --- | --- | --- | --- | --- | --- | --- | --- |
| 6 | Cc1nc(-c2ccc(S(=O)(=O)NCc3ccc(F)cc3)cc2)co1 | . | -3.4% | -2.8% | -16.0%[46.1 µM] | 28.8% | . | . | . |
| 3 | Cc1ccc2c(=O)cc(CSc3ccccc3)[nH]c2c1C | . | -1.3% | -10.2% | 7.3%[46.1 µM] | 15.7% | . | . | . |
| 1 | CCOC(=O)c1cccc(NC(=O)CS(=O)(=O)Cc2nc(-c3cccc(OC)c3)oc2C)c1 | -5.8% | -4.4% | 17.8% | -4.1% | ? | -39.4% | 13.7% | 24.6%&24.6% |

Additional structures follow:
No.	SMILES	SARS PLpro yeast	Cruzain inh Det	Cruzain inh noDet	LASV entry inh
16	CCOC(=O)c1c(S(=O)(=O)N2CCC(C(=O)Nc3cccc(C)n3)CC2)c(C)n(C)c1C	.	4.2%	-6.2%	-1.0%[46.1 µM]
17	Cc1noc(C)c1COc1ccc(C(=O)OCc2nnc(-c3ccc(Cl)cc3)o2)cc1	-2.8%	-2.4%	8.2%	9.2%
18	COc1ccc(N2CCC(CNC(=S)Nc3c(C)cccc3C)C2)cc1 (configuration not stated)	-1.4%	.	.	?
19	CC(C)=CCc1c2c(c3occ(-c4ccc(O)cc4)c(=O)c3c1O)C=CC(C)(C)O2	?	-8.6%	?	.
20	CN(CC(=O)NCc1ccccc1)Cc1cccc(F)c1	0.7%	.	.	-1.2%
21	Cc1ccc(CC(=O)N2CCN(c3ccccn3)CC2)cc1	-1.3%	-1.8%	-5.5%	24.4%
22	COc1cccc(C(=O)NNC(=O)c2ccccc2Br)c1	-6.5%	4.5%	-4.3%	-5.9%
23	Cc1occc1C(=O)N/N=C/C1=C(N2CCOCC2)C(=C/c2ccc(Cl)cc2Cl)/CC1	.	.	.	-8.5%
24	COc1cc(-c2nc3n(n2)C(c2ccc(F)cc2)C(C(N)=O)=C(C)N3)cc(OC)c1OC (configuration not stated)	.	-2.3%	6.5%	-1.4%[46.1 µM]
25	CN(Cc1ccccc1)C(=O)C1CCN(S(=O)(=O)c2cc([N+](=O)[O-])ccc2Cl)CC1	5.3%	-5.8%	10.3%	.
26	CCOCCCNC(=O)c1c[nH]c2ccc(S(=O)(=O)N(C)c3ccc(Cl)cc3F)cc2c1=O	.	1.1%	?	?
27	Cc1ccc(C)c(S(=O)(=O)N2CCN(C(=O)CCc3nc4ccccc4c(=O)[nH]3)CC2)c1	-9.6%	.	.	-4.2%
28	CCOC(=O)Cn1nc(C)c(NC(=O)COc2cccc(Cl)c2)c1C	-0.5%	.	.	?
29	O=C(c1cccs1)N(Cc1ccc(Cl)cc1)C1CCS(=O)(=O)C1 (configuration not stated)	3.7%	.	.	?
30	Cc1cc(NC(=O)COc2ccccc2)ccc1Cl	-2.8%	.	.	.

No.	2A StopGo	NS1 inh	RE007 growth inh	MARV entry inh
16	-25.2%	.	.	.
17	?	-11.1%	-13.9%	?
18	-16.9%	6.3%	-10.6%	?
19	?	1.0%	-10.9%	.
20	4.4%	-5.7%	-6.6%	-13.8%
21	34.2%[activator]	-16.9%	-16.5%	11.8%
22	0.0%	-6.6%	4.5%	-1.0%
23	-20.5%	.	?	-23.1%
24	-13.7%	.	.	7.1%[46.1 µM]
25	?	3.6%	-6.3%	0.6%
26	?	.	.	.
27	-16.2%	.	5.2%	11.3%
28	-26.1%	.	1.9%	2.9%[46.1 µM]
29	-19.9%	5.0%	-4.9%	16.2%[46.1 µM]
30	63.6%[activator]	-21.9%	-21.0%	.

Later entries.
No.	SMILES	SARS PLpro yeast	Cruzain inh Det	Cruzain inh noDet	LASV entry inh
31	O=S(=O)(NCc1ccccn1)c1ccc2ccccc2c1	-2.3%	.	.	18.7%[46.1 µM]
32	COc1ccc(CCNC(=O)CSc2nnnn2-c2ccccc2OC)cc1OC	4.6%	-0.6%	6.2%	.
33	COCCSc1nc2c(c(=O)[nH]c(=O)n2C)n1CCCc1ccccc1	8.2%	.	.	.
34	CCNc1nc(NC(C)C)nc(N(C#N)CCOc2ccccc2)n1	-17.7%	-9.0%	-6.1%	0.8%
35	Cc1cc(Cl)ccc1OCC(=O)O	8.1%	4.0%	5.9%	.
36	Cc1ccc(C2NC(c3ccc(C)cc3)C(C)C(=O)C2C)cc1 (configuration not stated)	-1.6%	.	.	.
37	COC(=O)c1[nH]c(C)c(/C(O)=C2\C(=O)C(=O)N(CCCN3CCOCC3)C2c2ccccn2)c1C (configuration not stated)	11.4%	-6.2%	-7.2%	-1.1%
38	c1ccc(Oc2cc(-c3ccccc3)ncn2)cc1	5.3%	4.4%	0.9%	8.3%
39	Cc1ccc(S(=O)(=O)NCCS(=O)(=O)N2CCN(c3ccc(F)cc3)CC2)cc1	0.2%	.	.	-2.6%
40	N#CCSc1nnc(-c2ccccc2)c(-c2ccccc2)n1	9.1%	-2.4%	-10.9%	-14.1%
41	COCCNC(=O)/C(C#N)=C/C(C)=C/c1ccccc1	-5.7%	-0.9%	10.5%	6.5%
42	Cc1cc(C)cc(N2C(=O)C3CCCN3C2=S)c1 (configuration not stated)	-0.1%	.	.	4.1%
43	Cn1c(=O)c(C(=O)CN2CCN(Cc3ccc4c(c3)OCO4)CC2)c(N)n(Cc2ccccc2)c1=O	-1.8%	.	.	.
44	Cc1ccsc1C(=O)OCC(=O)N(C)c1c(N)n(Cc2ccccc2)c(=O)[nH]c1=O	-8.2%	.	.	5.4%
45	COc1ccc(CCNc2ncnc3sccc23)cc1OC	1.0%	.	.	?
46	OCCN1CCN(CC(O)COc2ccc3c(c2)OCO3)CC1 (configuration not stated)	3.1%	0.5%	2.8%	16.1%

No.	2A StopGo	NS1 inh	RE007 growth inh	MARV entry inh
31	59.1%[activator]	-4.3%	0.0%	2.7%[46.1 µM]
32	-8.6%	-8.6%	7.7%	-5.4%
33	?	15.4%	16.2%	.
34	-35.5%	-17.3%	-1.3%	-18.9%[46.1 µM]
35	-16.5%	4.5%	24.1%	.
36	-13.0%	-33.6%	-13.4%	.
37	7.2%	?	18.5%	?
38	14.3%	-21.9%	?	?
39	-20.6%	.	26.0%	-6.8%
40	-18.9%	-9.5%	10.9%	-1.2%
41	17.1%	3.1%	-6.2%	-1.8%
42	-12.2%	1.6%	-2.8%	7.9%
43	-15.0%	0.8%	5.2%	.
44	-14.0%	.	4.5%	?
45	28.2µM*	.	-5.3%	?
46	-6.3%	-3.3%	1.3%	-7.8%

Compounds as they come (roughly 4.7% active in at least one column).
